Bfl-1 A1 inh: inhibitors of the anti-apoptotic protein A1, read as caspase activation | MEF A1-2A-BIM cells, Caspase-Glo 3/7 luminescence, 3 h; percent of clofoctol response, vehicle zero | caspase activation, % (test concentration not listed) | 330,000 tested, 0.066% active;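 active = over half of replicate activation scores above 10%, or exactly half above 10 with the replicate mean above 10; inconclusive = replicate mean below 10 yet half the replicates above 10; inactive = over half of replicates below 10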;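 also: wells of about 30 µL received 50 nL stock; many hits fall short of the cut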
Beta2AR agonist: agonists of human beta-2 adrenergic receptor inducing internalization; response, % (concentration not given with the values); 340,000 tested, 0.43% active; P07550; Am2.2-beta2AR cells, FAP receptor internalization, flow cytometry; reference of the scale not given here;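 active = response above a set limit, near 3 SD of response in nonfluorescent compounds, cut at about 42% in these data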;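 also: stock transfer was 100 nL into about 11 µL; a reference agonist was the positive control; negative values mostly stem from fluorescent compounds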
HNF4A DNA FP: change in binding of human HNF4 alpha to DNA; 360,000 tested, 0.3% active; P41235; HNF4a-FITC DNA binding, fluorescence polarization, 1 h; activity change, % at 10 µM; in the data active = activity change above about 30%, passing the limit was not always enough;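 also: controls were the assay level and a saturating level of protein; the project sought stronger binding though the title names inhibitors; some compounds called inactive have numbers as strong as hits; positive values seem to mean higher polarization but the record does not say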
LANA-H2B inh: blocks KSHV LANA binding to histone H2A/H2B | cell-free LANA-H2A/H2B peptide, fluorescence polarization | inhibition, % (test concentration not listed) | 320,000 tested, 0.6% active | AID 2629; in the data active = inhibition mostly above about 10%, no sharp cut-off; inactive = mostly below about 6.7%;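 also: stock transfer was 7.5 nL into about 10 µL; 0% = median of vehicle wells and 100% = median of positive control wells; one replicate is shown; the record names a cut of 25% in any replicate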
Target sequence (Q9QR71 whole entry, looked up): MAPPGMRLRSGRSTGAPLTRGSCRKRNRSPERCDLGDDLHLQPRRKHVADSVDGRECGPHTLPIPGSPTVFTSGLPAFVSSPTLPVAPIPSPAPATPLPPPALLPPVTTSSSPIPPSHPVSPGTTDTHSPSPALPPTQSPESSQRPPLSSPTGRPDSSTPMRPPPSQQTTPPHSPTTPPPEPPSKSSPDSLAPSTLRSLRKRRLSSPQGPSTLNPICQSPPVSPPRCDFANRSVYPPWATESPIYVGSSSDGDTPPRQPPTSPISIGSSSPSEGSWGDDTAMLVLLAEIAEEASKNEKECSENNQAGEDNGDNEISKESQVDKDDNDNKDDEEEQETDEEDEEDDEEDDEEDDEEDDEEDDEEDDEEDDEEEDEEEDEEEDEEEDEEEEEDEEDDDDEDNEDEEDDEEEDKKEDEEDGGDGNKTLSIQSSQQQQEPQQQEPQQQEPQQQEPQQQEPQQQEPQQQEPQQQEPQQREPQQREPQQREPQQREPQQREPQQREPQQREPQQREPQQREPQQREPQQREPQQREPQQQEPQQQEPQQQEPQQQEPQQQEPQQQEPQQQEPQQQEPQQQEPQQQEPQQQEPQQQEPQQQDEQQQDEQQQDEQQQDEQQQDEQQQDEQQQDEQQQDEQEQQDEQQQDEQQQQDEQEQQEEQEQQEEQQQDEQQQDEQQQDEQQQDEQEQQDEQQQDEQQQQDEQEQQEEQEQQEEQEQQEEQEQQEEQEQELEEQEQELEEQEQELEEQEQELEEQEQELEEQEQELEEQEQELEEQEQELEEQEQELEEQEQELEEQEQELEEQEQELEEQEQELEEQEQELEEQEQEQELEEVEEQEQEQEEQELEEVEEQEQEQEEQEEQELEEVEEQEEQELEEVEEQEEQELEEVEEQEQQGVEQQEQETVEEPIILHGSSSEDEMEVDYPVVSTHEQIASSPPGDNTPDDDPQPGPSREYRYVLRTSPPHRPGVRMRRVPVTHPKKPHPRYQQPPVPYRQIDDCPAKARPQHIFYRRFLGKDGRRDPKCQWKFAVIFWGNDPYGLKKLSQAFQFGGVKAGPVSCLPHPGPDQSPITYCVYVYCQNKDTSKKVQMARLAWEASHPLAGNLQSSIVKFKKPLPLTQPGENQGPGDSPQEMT
E coli growth: inhibitors of Escherichia coli growth. OD600, 23 h; stronger effect = lower value. OD600 absorbance (test concentration not listed). 330,000 tested, 0.21% active;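 active = OD600 absorbance below the run mean of sample wells minus 3.6 SD, in any replicate, cut at about 0.56 in these data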;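 also: stock transfer was 300 nL into about 60 µL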
UCH37 inh: human UCH37 deubiquitinating enzyme inhibition; Q9Y5K5; purified proteasome/UCH37, Ub-AMC cleavage fluorescence; inhibition, % (concentration not given with the values); 330,000 tested, 0.33% active;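 active = mean of two replicates above 20%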;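 also: 0% = compound-free wells with enzyme and 100% = wells lacking proteasome; stock transfer was 100 nL into about 20 µL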
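Assay system: Proteasome-bound UCH37. Buffer or medium: pH 7.4 Tris-HCl (50 mM) with ovalbumin, ATP-MgCl2, DTT. Incubation: 30 min preincubation with enzyme, 25 min cleavage at room temperature. Measured by: fluorescence, ex 355 nm, em 460 nm. Read-out basis: percent inhibition. Control set: wells without proteasome as full block, compound-free enzyme plus substrate as uninhibited.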
Vif A3G: inhibitors of Vif binding to APOBEC3G peptide, primary screen, biochemical, TR-FRET, GST-Vif 1-94, biotin-A3G peptide, dose response retest (AID 1117319). 260,000 tested, 0.57% active. inhibition, %; hits with a dose series show IC50 in µM. TR-FRET GST-Vif / biotin-A3G peptide binding; higher % means a stronger effect; test concentration not given here; strong numbers were not always called active;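 active = above the screen mean plus three standard deviations and confirmed in dose response; inconclusive = results disagree or hit not tested in dose response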;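 also: Vif residues 1-94 fused to GST binding biotinylated APOBEC3G peptide 110-148; 0% = full assay without inhibitor and 100% = GST in place of GST-Vif; retest series ran down from 100 µM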
The depositor's hits bear a star; i = inactive; ? = inconclusive; . = not tested or not shown; & = joins results of further samples.

structure | Bfl-1 A1 inh | Beta2AR agonist | HNF4A DNA FP | LANA-H2B inh | E coli growth | UCH37 inh | Vif A3G
COc1ccc(/C=C/C(=O)NCCCN2CCOCC2)cc1 | 1.5 | 1 | -5.2 | 0.2 | 0.67 | -1.3 | 2%
Cc1ccc(N2CC(C(=O)NCCS(=O)(=O)N3CCN(c4ccccc4F)CC3)CC2=O)cc1 (stereo unspecified) | -1.4 | -5 | -0.8 | 4.5 | 0.73 | -1.6 | -4%
CC(=O)c1c(C)[nH]c(C(=O)OCC(=O)Nc2ccc(Cl)c(S(=O)(=O)N(C)C)c2)c1C | -0.5 | 5 | -2.1 | 0.8 | 0.64 | 4.5 | .
OC1CCCN(Cc2c3ccccc3cc3ccccc23)C1 (stereo unspecified) | ? | 0 | -7.3 | -1.8 | 0.63 | -365 | -5%
COc1ccc(NC(=O)Nc2ccc(O)c3ccccc23)cc1 | 0.4 | 1 | . | -3.5 | 0.62 | -19 | .
CC12CCC(=O)N1C(C(=O)OCC(=O)Nc1ccc(C(F)(F)F)cc1)CS2 (stereo unspecified) | 0.4 | -1 | -2.1 | -14 | 0.68 | 2.4 | -11%
COC(=O)CC1C(=O)NCCN1C(=O)CSc1nnnn1-c1ccc(Cl)cc1 (stereo unspecified) | 0.0 | 3 | 4.9 | -4.4 | 0.68 | 3.6 | 10%
COc1ccc(OC)c(S(=O)(=O)Nc2cc(OC)c(Cl)cc2OC)c1 | 1.3 | 15 | -2.0 | 2.2 | 0.66 | 3.2 | ?
CCOC(=O)NC(=O)c1cn(Nc2ncc(C(F)(F)F)cc2Cl)c(=O)[nH]c1=O | -0.1 | 1 | 3.1 | 1.6 | 0.64 | 5.4 | -3%
O=C(Cn1c(=O)oc2ccc(Cl)cc21)Nc1ccon1 | -3.0 | -5 | 1.2 | 15 | 0.69 | 3.6 | .
N=C(SC1CC(=O)N(c2ccc(F)cc2)C1=O)N1N=C(c2ccccc2)CC1c1ccccc1 (stereo unspecified) | 2.0 | 0 | 1.4 | 5.4 | 0.69 | -9.5 | -3%
CCOc1cc(/C=C2\COc3ccccc3C2=O)ccc1OCC(=O)N(C)C | -0.2 | 40 | 5.1 | -2.8 | 0.67 | 2.3 | .
CCOc1ccc(-n2c(SCc3nc(-c4ccc(C)cc4)no3)nnc2-c2ccncc2)cc1 | 0.1 | -9 | 0.3 | -5.6 | 0.66 | 1.8 | 2%&5%
COc1cc2cc(CCCOC(=O)c3ccc(C#N)cc3)oc(=O)c2cc1OC | 1.1 | -2 | 0.0 | -3.1 | 0.71 | 1.4 | .
Cc1cc(NC(=O)C2CCCN(S(=O)(=O)c3c(C)noc3C)C2)n[nH]1 (stereo unspecified) | 0.6 | -21 | -2.1 | -1.2 | 0.72 | 1.0 | 16%
Cc1ccc(NC(=O)N(Cc2cccs2)Cc2cc3cc4c(cc3[nH]c2=O)OCO4)cc1 | 0.4 | . | . | 0.1 | 0.63 | -14 | .
Cc1cc2c3c(c1)C1(C(=O)N3C(C)(C)CC2C)C(C#N)=C(N)Oc2n[nH]c(C)c21 (stereo unspecified) | -0.1 | -1 | -0.3 | -1.7 | 0.75 | 1.4 | ?
CCOC(=O)c1[nH]c2cc(OC)c(OC)cc2c1N | -0.3 | -11 | 0.0 | -1.8 | 0.72 | -32 | 3%
O=C1C(=O)N(CCCn2ccnc2)C(c2cccnc2)/C1=C(/O)c1ccc(F)cc1 (stereo unspecified) | . | -1 | -2.6 | 3.6 | 0.68 | 11 | -9%
COc1ccc(C2N(c3ccccn3)C(=O)C3CCCN32)c(OC)c1 (stereo unspecified) | 0.6 | -4 | 5.3 | 1.8 | 0.64 | 2.9 | 13%

Part of the list above, as labelled records.
COC(=O)CC1C(=O)NCCN1C(=O)CSc1nnnn1-c1ccc(Cl)cc1 (stereo unspecified)
  Bfl-1 A1 inh: 0.0
  Beta2AR agonist: 3
  HNF4A DNA FP: 4.9
  LANA-H2B inh: -4.4
  E coli growth: 0.68
  UCH37 inh: 3.6
  Vif A3G: 10%

Cc1ccc(NC(=O)N(Cc2cccs2)Cc2cc3cc4c(cc3[nH]c2=O)OCO4)cc1
  Bfl-1 A1 inh: 0.4
  Beta2AR agonist: .
  HNF4A DNA FP: .
  LANA-H2B inh: 0.1
  E coli growth: 0.63
  UCH37 inh: -14
  Vif A3G: .

(listing goes on)
structure | Bfl-1 A1 inh | Beta2AR agonist | HNF4A DNA FP | LANA-H2B inh | E coli growth | UCH37 inh | Vif A3G
COc1cccc(-n2c(Cc3cc(=O)[nH]c(=O)[nH]3)nnc2SCC(=O)NC2CCCC2)c1 | 0.1 | -1 | -5.0 | -2.0 | 0.68 | -1.3 | >100µM*
CC(=O)Nc1cc2c(cc1C(=O)C(C)C)OCCO2 | 0.9 | -5 | 2.5 | 0.8 | 0.74 | -12 | 7%
CCC1CCCCN1C(=O)C(=O)c1cn(CC(=O)N(CC)CC)c2ccccc12 (stereo unspecified) | -0.1 | -3 | -1.3 | -1.6 | 0.72 | 7.0 | .
O=C(Oc1ccc2ccc(=O)oc2c1)c1ccco1 | -0.1 | 0 | -1.2 | 5.5 | 0.7 | i | -1%
CC(=O)Nc1cccc(NC(=O)CSc2nc(=O)n3cccc(C)c3n2)c1 | 1.1 | . | -0.6 | -1.2 | 0.66 | 4.9 | -6%
CO/N=C(\C(=O)O)c1csc(NN=C(C)C)n1 | 0.1 | 2 | -2.4 | 3.3 | . | . | ?
Cc1ccc(Cn2c(CN3CCOCC3)nc3c2c(=O)n(C)c(=O)n3C)cc1 | -1.1 | -9 | -2.5 | -1.3 | 0.69 | 1.9 | 19%
COc1cc(OC)cc(C(=O)Nc2nnc(SCC(=O)NCc3ccco3)s2)c1 | -0.1 | 2 | -2.4 | 39* | 0.68 | 5.0 | 14%
Cc1c(/C=N\NC(=O)c2cc3ccccc3o2)c2ccccc2n1C | 0.5 | 2 | -0.3 | -4.1 | . | . | ?
Cc1ccc(S(=O)(=O)N2CCN(C(C)C)CC2)cc1 | -0.1 | -1 | 2.4 | 3.6 | 0.65 | 1.9 | 0%
C=CCn1c(SCc2nc3ccccc3c(=O)[nH]2)nnc1-c1cc2cc(Cl)ccc2o1 | 0.2 | -14 | 0.5 | -7.1 | 0.71 | -4.3 | -3%
Cc1ccc(C(=O)Nc2ccccc2C(=O)N2CCCCC2C)cc1 (stereo unspecified) | 0.3 | -3 | -1.1 | -0.5 | 0.73 | 4.0 | .
CC(C)N(C(=O)COC(=O)c1cccnc1Cl)c1ccccc1 | -0.1 | -2 | 3.3 | -2.4 | 0.65 | 1.6 | 4%
Cc1cccc(Cc2nnc(CCC(=O)N(C)CCc3ccccc3)o2)c1 | -3.5 | -2 | 5.8 | 1.2 | 0.71 | 3.9 | .
CCCCn1c(N)c(N(CCOC)C(=O)CSCC(=O)Nc2cccc(C)c2)c(=O)[nH]c1=O | 1.9 | 1 | -1.5 | 4.8 | 0.64 | -1.1 | 2%
CN(CC(=O)Nc1cccc(F)c1)C(=O)COc1ccc2c(c1)CCC2 | -0.5 | 8 | 1.4 | 0.2 | 0.67 | -0.4 | .
CCCN1CCN(S(=O)(=O)c2ccc3c(c2)CC(C)N3C(=O)C2CC2)CC1 (stereo unspecified) | -0.1 | -10 | 3.6 | -6.8 | 0.68 | 1.8 | .
Cc1cc2nc(CCN(Cc3cccnc3)C(=S)Nc3ccc(F)cc3)[nH]c2cc1C | -0.1 | 9 | 0.6 | 1.9 | 0.7 | 6.2 | -5%
COc1cc(OC)cc(C(=O)N[C@H](C(=O)OCC(=O)Nc2ccc(OC)c(OC)c2)C(C)C)c1 | 0.1 | -7 | 1.0 | -0.9 | 0.68 | -0.4 | -10%
CC(C)(C)OC(=O)NCCC(=O)N/N=C/c1cccc2nccnc12 | 0.0 | 12 | -1.8 | -6.5 | . | . | 7%
CC(C)c1ccc(NC(=O)CN(Cc2ccccc2)S(C)(=O)=O)cc1 | -0.4 | 19 | 1.3 | -3.9 | 0.69 | 1.7 | -1%
CCn1c(COc2ccc(=O)n(-c3ccccc3)n2)nnc1SCc1ccc(OC)cc1 | 0.3 | -12 | 3.3 | 7.9 | 0.7 | 2.8 | -1%
O=C(COc1ccc(Cl)cc1Cl)NCCCn1ccnc1 | -0.1 | -8 | -1.0 | 1.1 | 0.69 | 0.3 | 2%
Cc1ccc(S(=O)(=O)N2CCOCC2)cc1NC(=O)COC(=O)c1cc(=O)c2ccccc2o1 | 0.6 | 2 | 1.0 | -0.8 | 0.66 | -0.7 | .
COC(=O)c1ccccc1S(=O)(=O)NNC(=O)c1nn(C)c(=O)c2ccccc12 | -1.0 | -4 | 0.1 | -0.8 | 0.69 | 1.3 | 0%
Nc1nc(SCC(=O)Nc2cc(C(F)(F)F)ccc2Cl)[nH]c(=O)c1NC(=O)c1ccco1 | -0.3 | 0 | 2.7 | 1.1 | 0.7 | 2.9 | .
NC(=O)c1ccsc1NC(=O)CSc1ccccc1F | -2.2 | 4 | 3.9 | -3.6 | 0.71 | 0.0 | 7%
NC(=O)COC(=O)c1ccccc1SCC(=O)NC1CCCCCCC1 | 0.1 | 7 | 1.8 | -1.6 | 0.67 | 2.3 | -4%
CCN(CC)C(=O)CNc1ccc(C(F)(F)F)cc1[N+](=O)[O-] | -0.2 | -9 | -3.1 | 3.9 | 0.7 | 5.6 | -7%
CCN(CC)CCCNC(=O)c1cn(C)c2ccc(S(=O)(=O)N(C)C)cc2c1=O | -0.2 | 4 | 4.2 | -0.6 | 0.76 | 2.5 | 17%&-8%
O=C(Nc1cccc(S(=O)(=O)NC2=NCCCCC2)c1)c1cc(-c2ccccc2)nc2ccccc12 | 0.1 | 16 | -0.6 | -1.3 | 0.7 | 2.5 | .
O=C(NCc1ccccn1)C1CCN(S(=O)(=O)c2ccc(Br)cc2)CC1 | 0.9 | 9 | 0.1 | -3.2 | 0.78 | 3.5 | .
CC(C)[C@H](NS(=O)(=O)c1cccc(Cl)c1)C(=O)OCC(=O)NC(=O)CN1CCCC1=O | -1.2 | 1 | 6.5 | 4.0 | 0.67 | -0.1 | 17%
CN1CCN(S(=O)(=O)c2cccc(C(=O)N3CCN(c4ccccc4)CC3)c2)CC1 | -0.2 | 3 | 2.4 | -3.7 | 0.68 | 3.5 | .
CCOC(=O)CCCNC(=O)CN1C(=O)NC(CCc2ccccc2)C1=O (stereo unspecified) | 1.3 | -1 | 3.0 | -3.3 | 0.65 | 2.2 | -5%
CNc1cnn(-c2ccccc2)c(=O)c1Cl | 0.1 | -2 | -2.6 | 1.7 | 0.69 | 4.6 | 0%
COc1ccc(C(=O)/C(C#N)=N/Nc2ccc([N+](=O)[O-])cc2)cc1 | 1.5 | 46* | 16 | -0.3 | . | . | 6%
Cc1ccc(NC(=O)CN(C)C(=O)COc2cccc3cccnc23)cc1 | 1.1 | -2 | 5.0 | -4.0 | 0.66 | -1.0 | 5%
C=CCOc1cccc(/C=C/c2nc3ccccc3c(=O)[nH]2)c1 | -3.6 | -3 | 0.8 | -0.8 | 0.68 | -48 | -5%
CCCCC(CC)CNC(=O)CCS(=O)(=O)c1cccc2nsnc12 (stereo unspecified) | 0.1 | -1 | 3.3 | 3.1 | 0.68 | 5.9 | 2%
CO/N=C(/COc1ccc(F)cc1)c1ccc(OC)cc1 | 1.4 | 4 | -0.4 | -2.0 | . | . | -6%
CCc1cc(=O)[nH]c(SCC(=O)NCc2ccc3c(c2)OCO3)n1 | 0.4 | -8 | 7.0 | 6.8 | 0.71 | 5.6 | 12%
CC(C)(C)c1ccc(OCC(O)CSc2ncn[nH]2)cc1 (stereo unspecified) | 0.2 | 6 | 0.0 | 1.8 | 0.69 | 0.6 | -9%

Screens deposited in PubChem by several laboratories.
